From PubChem
2A firefly = lowers the firefly signal of an FMDV 2A StopGo reporter | AID 1745856 | HEK cells with a luciferase reporter of 2A StopGo recoding | 120,000 tested, 0.23% active | Potency, µM (top dose mostly 57.5 µM), for the others: at the top dose signal change, negative = less light; active = well fitted falling curve with a large enough effect; inconclusive = small, poorly fitted or top-dose-only effect; inactive = no such curve, though single readings can be large or run the other way; further: nearly all actives have a fitted effect of over 60% in size; overnight with compound
StopGo RLuc = lowers the Renilla signal of an FMDV 2A StopGo reporter | HEK cells with a luciferase reporter of 2A StopGo recoding | Potency, µM (top dose mostly 57.5 µM), for inactives: at the highest dose signal change, negative = less light | 120,000 tested, 0.32% active; active means well fitted falling curve with a large enough effect; inconclusive means small, poorly fitted or top-dose-only effect; inactive means no such curve, though single readings can be large or run the other way; further: nearly all actives have a fitted effect of over 55% in size; overnight with compound
* marks the source's active call; other numbers are inactive results; [ ] = another dose, or the depositor's remark. On the % scale 0 is the no-effect control and ±100 the full control effect; potency means the concentration at half of the fitted maximal effect.

Screening CC(C)OCCCNC(=O)C1CC(=O)N(CCc2c[nH]c3ccc(F)cc23)C1 (stereo not given) returned 2A firefly 14% and StopGo RLuc 11%.
Screening O=C(CSc1nc2cc(C(F)(F)F)ccc2s1)c1ccc2c(c1)CCCC2 returned 2A firefly 18% and StopGo RLuc 12%.
CCCCCNc1c2c(nc3ccccc13)CC(C)(C)CC2=O was read as 2A firefly inconclusive and StopGo RLuc inconclusive.
Screening CC(C)=CC1C(C(=O)N(C)CC(N)=O)C1(C)C (stereo not given) returned 2A firefly 5% and StopGo RLuc -9%.
Screening CCCCN(C)C(=O)CSc1nc2ccsc2c(=O)n1-c1ccccc1F returned 2A firefly 50%[activator] and StopGo RLuc 54%[activator].
Screening COc1cccc(/C=C(/C#N)C(=O)c2c(Cl)cccc2Cl)c1OC returned 2A firefly inconclusive and StopGo RLuc inconclusive.
CC1CNC(C)(C)C(O)C1 (stereo not given) was read as 2A firefly 7% and StopGo RLuc 1%.
`O=[N+]([O-])c1cccc(/C=N/O)c1` gave 2A firefly -6% and StopGo RLuc -12%.
Screening CC(C)CCn1c(NCc2ccco2)nc2c1c(=O)[nH]c(=O)n2C returned 2A firefly 1% and StopGo RLuc -3%.
CC(=O)c1ccc(NC(=O)C2=CC(c3ccc4c(c3)OCO4)=NS(=O)(=O)N2C)cc1 was read as 2A firefly 7% and StopGo RLuc -5%.
For CN(CC(=O)Nc1ccc(Cl)cc1C(F)(F)F)C1CCCc2ccccc21 (stereo not given) the results were 2A firefly -8% and StopGo RLuc 0%.
CCC(=O)c1cc(Cl)ccc1OCC(=O)Nc1ccccc1N1CCCC1=O was read as 2A firefly -16% and StopGo RLuc -11%.
For Cc1cc(C(=O)N(Cc2cccs2)C2CC2)c(C)o1 the results were 2A firefly 7% and StopGo RLuc 13%.
For CCN(CC)c1ccc(NC(=O)c2cnn3c(C(F)F)cc(-c4ccccc4)nc23)cc1 the results were 2A firefly -19% and StopGo RLuc -9%.
Screening CCNC(=O)c1cccc(Nc2nc(CN3CCOCC3)nc3sc4c(c23)CCCC4)c1 returned 2A firefly 28% and StopGo RLuc 40%[activator].
CCN1CCc2c(sc(NC(=O)Nc3cccc(Cl)c3)c2C(N)=O)C1 was read as 2A firefly 46%[activator] and StopGo RLuc 11%.
CCc1noc(-c2ccc(N3CCCCC3)c([N+](=O)[O-])c2)n1 was read as 2A firefly 147%[activator] and StopGo RLuc -6%.
`c1coc(CNCc2ccc3cc[nH]c3c2)c1` gave 2A firefly -4% and StopGo RLuc -10%.
COc1ccc(Br)cc1CNC(=O)CN1CCSc2ccccc21 was read as 2A firefly 14% and StopGo RLuc 86%[activator].
Screening Cc1ccc(C(=O)C(C)Sc2nc(CN3CCOCC3)nc3ccccc23)cc1 (stereo not given) returned 2A firefly -2% and StopGo RLuc -9%.
`CCCn1c(NCc2ccccc2C)nc2ccccc21` gave 2A firefly 50%[activator] and StopGo RLuc -8%.
O=C(O)c1ccccc1C(=O)OCCCC(F)(F)C(F)(F)F was read as 2A firefly -3% and StopGo RLuc 2%.
Screening Cc1ccc(NC(=O)c2sc3nc4c(cc3c2N)CN(C(C)C)CC4)cc1 returned 2A firefly inconclusive and StopGo RLuc inconclusive.
For CCOC(=O)c1c(C)oc2nc(C)nc(N3CCN(c4ccc(C)cc4C)CC3)c12 the results were 2A firefly 0% and StopGo RLuc 0%.
For Cc1cc(C(=O)OCC(=O)c2ccccc2)c2cccc(C)c2n1 the results were 2A firefly 9% and StopGo RLuc 7%.
`COc1ccc(/C(=N\O)OC(=O)/C=C/c2ccco2)cc1` gave 2A firefly 217%[activator] and StopGo RLuc 0%[1.06 µM].
Screening CCOc1ccccc1NC(=O)C(CC(C)C)NC(=O)C1CCC(C)CC1 (stereo not given) returned 2A firefly 9% and StopGo RLuc 28%.
For COc1ccc(C(=O)/C=C/c2cccs2)c(OC(=O)c2ccccc2)c1 the results were 2A firefly 3% and StopGo RLuc inconclusive.
Screening CCCOc1ccc(C(=O)Nc2ccc3oc(=O)ccc3c2)cc1 returned 2A firefly 59%[activator] and StopGo RLuc -16%.
CCOC(=O)c1c(NC(=O)CSc2cn(CCNC(=O)c3ccccc3OC)c3ccccc23)sc2c1CCCC2 was read as 2A firefly 4% and StopGo RLuc 8%.

Looked up one by one from the entries so far (6):
Screening CCNC(=O)c1cccc(Nc2nc(CN3CCOCC3)nc3sc4c(c23)CCCC4)c1 returned 2A firefly 28% and StopGo RLuc 40%[activator].
For Cc1cc(C(=O)OCC(=O)c2ccccc2)c2cccc(C)c2n1 the results were 2A firefly 9% and StopGo RLuc 7%.
Screening Cc1ccc(C(=O)C(C)Sc2nc(CN3CCOCC3)nc3ccccc23)cc1 (stereo not given) returned 2A firefly -2% and StopGo RLuc -9%.
CCCCCNc1c2c(nc3ccccc13)CC(C)(C)CC2=O was read as 2A firefly inconclusive and StopGo RLuc inconclusive.
Screening CCCCN(C)C(=O)CSc1nc2ccsc2c(=O)n1-c1ccccc1F returned 2A firefly 50%[activator] and StopGo RLuc 54%[activator].
Screening CC(C)=CC1C(C(=O)N(C)CC(N)=O)C1(C)C (stereo not given) returned 2A firefly 5% and StopGo RLuc -9%.

The listing picks up, starting two compounds before the break.
Screening CCCOc1ccc(C(=O)Nc2ccc3oc(=O)ccc3c2)cc1 returned 2A firefly 59%[activator] and StopGo RLuc -16%.
CCOC(=O)c1c(NC(=O)CSc2cn(CCNC(=O)c3ccccc3OC)c3ccccc23)sc2c1CCCC2 was read as 2A firefly 4% and StopGo RLuc 8%.
Screening COc1ccc2cnn(CC(=O)Nc3cccc(F)c3)c(=O)c2c1OC returned 2A firefly 33%[activator] and StopGo RLuc 6%.
For CCN(CC)c1ccc(N=Cc2ccc(Br)s2)cc1 the results were 2A firefly 25% and StopGo RLuc 2%.
CCOc1ccc(CNc2ccc(N3CCOCC3)c(C(=O)O)c2)cc1 was read as 2A firefly 2% and StopGo RLuc -14%.
For COc1ccc(OC)c(S(=O)(=O)NCC(c2ccco2)S(=O)(=O)c2ccccc2)c1 (stereo not given) the results were 2A firefly -14% and StopGo RLuc 212%[activator].
Screening CCOC(=O)c1ccc(NC(=O)NCc2nc(-c3ccccc3)oc2C)cc1 returned 2A firefly 17% and StopGo RLuc 8%.
C=CCNc1nc(-c2cc(C)n(-c3cc(C)on3)c2C)cs1 was read as 2A firefly 165%[activator] and StopGo RLuc 18%.
COc1ccc(/C=C(/CC(=O)O)c2nc3ccccc3o2)cc1OC was read as 2A firefly 99%[activator] and StopGo RLuc -4%.
COc1ccc(OC)c(NC(=O)CN2C(=O)CN=C(c3ccccc3Cl)c3cc(Cl)ccc32)c1 was read as 2A firefly -21% and StopGo RLuc -7%.
Screening O=C(Cc1coc(-c2ccccc2)n1)NCCN(C(=O)Cc1coc(-c2ccccc2)n1)C1CC1 returned 2A firefly 11% and StopGo RLuc 25%.
Screening O=C(C1CN(C(=O)c2cccc(Cl)c2Cl)c2ccccc2O1)N1CCOCC1 (stereo not given) returned 2A firefly -9% and StopGo RLuc 26%.
For C/C=C/C=C/C(=O)OCC(=O)c1ccc(Br)s1 the results were 2A firefly -5% and StopGo RLuc -20%.
COCc1nnc(NC(=O)c2cc(OC)c(OC)c(OC)c2)s1 was read as 2A firefly -4% and StopGo RLuc 13%.
`Cc1oc(-c2ccc(Cl)cc2)nc1CN1CCCC(C(=O)NCc2ccc(Cl)cc2)C1` (stereo not given) gave 2A firefly -22% and StopGo RLuc -14%.
For O=C(OCc1cccc(COC(=O)c2ccc(CO)cc2)c1)c1ccc(CO)cc1 the results were 2A firefly 27% and StopGo RLuc -7%.
Screening CCn1c(-n2nc(C)c(C)c2C)nc2c1c(=O)n(Cc1ccccc1)c(=O)n2C returned 2A firefly 10% and StopGo RLuc -1%.

Compounds shown so far that contain a nitro group on carbon, in the order listed:
`O=[N+]([O-])c1cccc(/C=N/O)c1` gave 2A firefly -6% and StopGo RLuc -12%.
CCc1noc(-c2ccc(N3CCCCC3)c([N+](=O)[O-])c2)n1 was read as 2A firefly 147%[activator] and StopGo RLuc -6%.

(list continues)
Screening Cc1cccc(NC(=O)COc2ccc3c(C)cc(=O)oc3c2)c1C returned 2A firefly 5% and StopGo RLuc -4%.
Screening Cc1ccc(C(=O)NCCCNC(=O)c2nc3ccccc3c(=O)[nH]2)cn1 returned 2A firefly 13% and StopGo RLuc 11%.
Screening Cc1nnsc1C(=O)Oc1ccc(Cl)cc1 returned 2A firefly -8% and StopGo RLuc -14%.
Screening CC(OC(=O)c1cc(=O)c2ccccc2o1)C(=O)Nc1cc(C(F)(F)F)ccc1Cl (stereo not given) returned 2A firefly 3% and StopGo RLuc 5%.
Cc1nc2c3cccnc3nn2c(C)c1CCC(=O)NCc1ccccc1 was read as 2A firefly 40%[activator] and StopGo RLuc 21%.
Screening Cc1ccc(N2CC(c3nc(-c4ccc(N(C)C)cc4)no3)CC2=O)cc1C (stereo not given) returned 2A firefly 11% and StopGo RLuc -6%.
Screening Cn1cc(C(=O)[C@@H]2CCc3nc[nH]c3C2)c2ccccc21 returned 2A firefly -17%[11.5 µM] and StopGo RLuc -8%.
Cc1ccc(-c2c(N)oc3ccccc3c2=O)cc1 was read as 2A firefly 0% and StopGo RLuc -6%.
Screening COc1ccc(C)c2sc(N(Cc3cccnc3)C(=O)c3cccs3)nc12 returned 2A firefly -11% and StopGo RLuc -11%.
`CCCN(CCC)C(=O)Cn1c(=O)n(-c2ccc(Cl)cc2)c(=O)c2c3c(sc21)CCCC3` gave 2A firefly -12% and StopGo RLuc -7%.
COc1ccc2cnn(CC(=O)Nc3ccc(F)cc3F)c(=O)c2c1OC was read as 2A firefly 0% and StopGo RLuc -4%.
For CC(C)(C)NC[C@H](O)COc1nsnc1N1CCOCC1 the results were 2A firefly -13%[11.5 µM] and StopGo RLuc -12%.
Screening Nc1nccnc1C(=O)NCCCNc1ccc(C(F)(F)F)cn1 returned 2A firefly 1% and StopGo RLuc -6%.
Cc1ccc(CNC(=O)CN2C(=O)COc3ccc(S(=O)(=O)Nc4ccccc4)cc32)cc1 was read as 2A firefly 0% and StopGo RLuc 100%[activator].
`COc1ccc(-c2[nH]c(-c3ccccc3)nc2SCC(=O)Nc2ccc3c(c2)OCCO3)cc1` gave 2A firefly -11% and StopGo RLuc 50%[activator].
Screening N#C/C(=C/c1ccc(O)cc1)c1nc2ccccc2o1 returned 2A firefly 154%[activator] and StopGo RLuc 37%[activator].
For Cc1ccc2nc(CNC(=O)c3ccccc3)[nH]c2c1 the results were 2A firefly 223%[activator] and StopGo RLuc 15%.
`CCC(C)NC(=O)/C=C/c1ccc(C)cc1` (stereo not given) gave 2A firefly 163%[activator] and StopGo RLuc 15%.
Screening O=C(O)/C(=C/C=C/c1ccccc1)NC(=O)c1ccccc1 returned 2A firefly -1% and StopGo RLuc 3%.
CCOC(=O)c1c(NC(=O)c2cc(=O)c3c(C)cc(C)cc3o2)sc2c1CCC2 was read as 2A firefly -15% and StopGo RLuc -9%.
Screening COC(=O)c1ccccc1OS(=O)(=O)c1ccc2c(c1)CCC2 returned 2A firefly 14% and StopGo RLuc -5%[1.06 µM].
Screening O=C(CSc1nc2cc(S(=O)(=O)N3CCOCC3)ccc2o1)N1CCOCC1 returned 2A firefly 54%[activator] and StopGo RLuc 21%.
For CCN(CC)S(=O)(=O)c1ccc(OC)c(NS(=O)(=O)c2ccc3ccccc3c2)c1 the results were 2A firefly 6% and StopGo RLuc 175%[activator].
C/C=C/Cn1c(SCC(N)=O)nc2c1c(=O)[nH]c(=O)n2C was read as 2A firefly 13% and StopGo RLuc 13%.
Screening O=C(Cc1n[nH]c(=O)c2ccccc12)NCC(=O)N1CCN(c2ccc(F)cc2)CC1 returned 2A firefly 6% and StopGo RLuc -6%.
For COCCNc1oc(-c2ccc(OC)cc2)nc1C#N the results were 2A firefly 238%[activator] and StopGo RLuc 13%.
For Cc1sc2ncnc(N3CCC(C(=O)Nc4cccc(S(=O)(=O)N5CCCC5)c4)CC3)c2c1C the results were 2A firefly inconclusive and StopGo RLuc inconclusive.
`CC(C)c1ccc(CCNC(=O)Cc2cccc3cccnc23)cc1` gave 2A firefly -12% and StopGo RLuc -7%.
`CCOC(=O)c1oc2cc(OC(=O)C(C)C)ccc2c(=O)c1-c1nc2ccccc2s1` gave 2A firefly 179%[activator] and StopGo RLuc 6%.
`COc1ccc(-c2c(-c3ccc(OCCN4CCCCC4)cc3O)n[nH]c2C)cc1OC` gave 2A firefly -1% and StopGo RLuc 10%.
For COc1ccc(OCC2c3cc(OC)c(OC)cc3CCN2C(=O)COc2ccc(Cl)cc2Cl)cc1 (stereo not given) the results were 2A firefly -3% and StopGo RLuc 0%.
Cc1c(NC(=O)c2ccccc2F)cccc1-c1nc2cccnc2s1 was read as 2A firefly -11% and StopGo RLuc -7%.
For Cc1ccc(-c2csc(NC(=O)COC(=O)c3ccc(F)cc3Cl)n2)cc1 the results were 2A firefly 155%[activator] and StopGo RLuc 0%.
For Cc1ccc(-n2c(-c3ccc(Br)cc3)nc3c(cnn3-c3ccccc3)c2=O)cc1 the results were 2A firefly 15% and StopGo RLuc -8%.
For CCc1ccc(S(=O)(=O)N(C)C(C)c2nc3ccccc3s2)cc1 (stereo not given) the results were 2A firefly -12% and StopGo RLuc -9%[1.06 µM].
CC(C)c1ccc(CN(C(=O)Cn2nc(C(N)=O)c3ccccc3c2=O)C2CC2)cc1 was read as 2A firefly 20% and StopGo RLuc 14%.
For Cc1ccc(-c2cc3nc(-c4ccccc4)cc(C(F)(F)F)n3n2)cc1 the results were 2A firefly 16% and StopGo RLuc -12%.
For CCOc1ccccc1CNC(=O)C1CCCN(c2ncnc3onc(-c4ccc(F)cc4)c23)C1 (stereo not given) the results were 2A firefly -6% and StopGo RLuc -9%.
Screening CCOC(=O)c1cnc(N2CCN(c3ccccc3)CC2)c2ccccc12 returned 2A firefly 21% and StopGo RLuc 6%.
